TRPV1 potentiator: potentiators of human vanilloid receptor 1 (TRPV1); Q8NER1; TRPV1-expressing cells, Fluo-8 calcium influx, capsaicin EC20 potentiation; host cell line not named in the record; control for the full effect not named in the record; potentiation, % at 8.33 µM; 320,000 compounds, 0.02% hits; AID 540277; active means potentiation above 80%; inconclusive means 30% to 80%; inactive means below 30%; note: 0% is about no effect
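Fluo-8 calcium influx in TRPV1-expressing cells, kinetic read (ex 480/em 520 nm). Compound added and read 3 min for agonist activity, followed by capsaicin at EC20 final and 2 min further read for enhancement.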
Sfp PPTase inh: inhibitors of Bacillus subtilis Sfp phosphopantetheinyl transferase; Q9F4F7; Biochemical Sfp PPTase activity, qHTS; Potency, µM, without a hit: max response, negative = inhibition, most hits filed as inhibitors; 310,000 compounds, 3.5% hits; AID 1490; active = well fitted inhibition curve with a large enough effect; inconclusive = small, poorly fitted or top-dose-only effect, or another doubt; inactive = no such curve, though single readings can be large or run the other way;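 note: the enzyme is Sfp with the accession as filed and its product quenches rhodamine fluorescence; potency is the fitted concentration of half-maximal effect; 0% = enzyme reaction without inhibitor and -100% = no enzyme wells; top concentration of the series not given in the record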
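Buffer: 50 mM Hepes-Na pH 7.6, 10 mM MgCl2, 0.01% Nonidet P-40, 0.01% BSA. Enzyme 15 nM, pre-exposed to compound 15 min; substrates then added and fluorescence change tracked over 30 min.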
D2 PAM: positive allosteric modulators of human D2 dopamine receptor; AID 624464; 360,000 compounds, 0.23% hits; potentiation, % (test concentration not listed); DiscoveRx D2 beta-arrestin cells, luminescence, 90 min; 100% = 57 uM dopamine signal; P14416; active = potentiation of 50% or more; inconclusive = 30% to 50%; inactive = 30% or less;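 note: compound concentration not given in the record; tested on top of an EC20 dose of dopamine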
Target sequence (P14416 whole entry, looked up): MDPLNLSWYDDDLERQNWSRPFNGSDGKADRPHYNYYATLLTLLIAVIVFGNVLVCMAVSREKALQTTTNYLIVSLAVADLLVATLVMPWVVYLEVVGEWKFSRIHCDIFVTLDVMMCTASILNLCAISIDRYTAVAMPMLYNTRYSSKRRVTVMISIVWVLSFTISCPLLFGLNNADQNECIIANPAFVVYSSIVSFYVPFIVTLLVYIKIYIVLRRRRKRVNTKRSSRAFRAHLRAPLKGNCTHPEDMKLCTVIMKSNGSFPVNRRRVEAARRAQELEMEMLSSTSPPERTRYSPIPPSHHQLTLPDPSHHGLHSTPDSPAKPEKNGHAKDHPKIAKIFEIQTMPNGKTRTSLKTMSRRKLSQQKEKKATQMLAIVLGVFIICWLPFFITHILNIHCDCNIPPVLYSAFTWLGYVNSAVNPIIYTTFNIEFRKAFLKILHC
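D2 cells co-treated with compound plus 50 nM dopamine (EC20) for 90 min at 37 deg C to detect potentiation. Beta-arrestin recruitment was read as enzyme-fragment luminescence after 1 h at ambient temperature. Full response was set by 57 uM dopamine.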
ClpP mod: qHTS Assay for Activators of ClpP; ATP-dependent Clp protease proteolytic subunit (Bacillus subtilis (strain 168)), P80244; Potency, µM (top dose mostly 57.5 µM), for the others: top-dose activity change, negative = active; AID 651965, 2013; 340,000 compounds, 1.9% hits; purified B. subtilis ClpP, FRET peptide cleavage, 20 min; active = well fitted falling curve with a large enough effect; inconclusive = small, poorly fitted or top-dose-only effect; inactive = no such curve, though single readings can be large or run the other way; note: potency is the fitted concentration of half-maximal effect; the source files actives as falling curves though it sought activators and does not explain the sign; nearly all actives have a fitted effect of over 65% in size; many hits overshoot -100%
Target sequence (P80244 whole entry, looked up): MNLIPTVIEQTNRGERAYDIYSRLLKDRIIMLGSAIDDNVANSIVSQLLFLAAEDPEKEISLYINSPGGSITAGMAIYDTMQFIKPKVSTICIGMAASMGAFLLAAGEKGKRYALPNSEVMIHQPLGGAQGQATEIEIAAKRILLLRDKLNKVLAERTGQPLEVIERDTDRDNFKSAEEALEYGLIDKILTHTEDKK
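Buffer: 100 mM Tris/HCl pH8, 100 mM KCl, 0.05% low protease BSA, 2.5% glycerol, 0.01% Tween-20. ClpP 10 microg/mL final; 20 min RT; delta FRET normalized to ADEP and DMSO controls.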
gsp ag: gsp mutant agonism. gsp mutant cells, cAMP HTRF, 30 min; control for the full effect not named in the record. Potency, µM (series often up to 76.9 µM), for the others: at the highest dose activation (cAMP increase), most hits filed as activators. 340,000 compounds, 0.13% hits. AID 624287; active = well fitted activation curve with a large enough effect; inconclusive = small, poorly fitted or top-dose-only effect, or another doubt; inactive = no such curve, though single readings can be large or run the other way; cell line not stated here;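 note: phosphodiesterase inhibitor Ro 20-1724 added with compounds to block cAMP breakdown; potency is the fitted concentration of half-maximal effect; nearly all actives have a fitted effect of over 60% in size; about a fifth of the inactives were tested at one dose only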
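Cells in DMEM/10% FBS with G418 were pretreated with compounds in DMSO plus […] (300 uM stock) for 30 min at 37C. cAMP was measured by HTRF (cAMP-d2 plus anti-cAMP antibody-K) after 30 min at room temperature.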
Menin MLL FP FL: displaces fluorescein MLL peptide from human menin. Fluorescence polarization, fluorescein-MLL peptide displacement from menin. FP activity change, % at 61.4 µM. 290,000 tested, under 10 active; inconclusive = falling polarisation curve, or a change in total fluorescence; inactive = total fluorescence flat and polarisation flat or rising; no compound was filed as active; the % refers to the polarisation; negative = inhibition;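 note: % of control where 0% means no effect; inhibitors lower the polarisation; unlabelled MLL peptide was the positive control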
gsp antagonist: gsp mutant antagonism. gsp-mutant cells, cAMP HTRF, 30 min; control for the full effect not named in the record. Potency, µM (series often up to 76.9 µM), inactives show top-dose activity change, negative = inhibition, usual class: inhibitors. 340,000 compounds, 0.4% hits. AID 624288; active = falling curve of any shape with a large fitted effect; inconclusive = falling curve, mostly with a smaller effect; inactive = flat or rising curve; cell line not stated here;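 note: intracellular cAMP measured with PDE inhibitor Ro 20-1724 present during compound exposure; potency is the fitted concentration of half-maximal effect; % is set by controls: 0 for no effect and ±100 for the full control effect; nearly all actives have a fitted effect of over 65% in size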
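G418-selected cells were plated in DMEM/10% FBS for 16-24 h at 37C, then treated with compounds plus the PDE inhibitor […] (300 uM solution added) for 30 min at 37C. Intracellular cAMP was measured by HTRF after 30 min lysis at room temperature.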
Numbers without * were called inactive; ? = inconclusive; nt = not tested or not shown; [ ] = dose if it differs, or a comment.

SMILES	TRPV1 potentiator	Sfp PPTase inh	D2 PAM	ClpP mod	gsp ag	Menin MLL FP FL	gsp antagonist
COCCOC(=O)C1=C(C)N(Cc2ccccc2)C(=O)NC1c1cccc(OC)c1OC (stereo unspecified)	4	8%	-6	-0.1%	-11%	-2.0	-3%
O=C(CNc1ccccc1)NNC1=NCCC1	-2	?	-4	-1.3%	-4%	0.4	7%
CN(Cc1ccc([N+](=O)[O-])cc1)c1ccccc1	nt	nt	0	nt	11%	nt	-2%
COC(=O)[C@H](Cc1ccccc1)NC(=O)[C@@H]1C[C@H]1[C@@H](NC(=O)OCc1ccccc1)c1ccccc1	21	22%	-10	1.1%	nt	1.7	-34%
CCN(CC)CCCN1C=C2C(=O)C(C)(OC(=O)CCC(=O)OC)C(=O)C=C2C=C1C1CC1 (stereo unspecified)	nt	?	5	-3.7%	6%	-2.9[11.7 µM]	4%
CC1CCCC(C)N1CCCNC(=O)c1cc2c(s1)-c1ccccc1OC2 (stereo unspecified)	15	3%	-55	3.6%	-14%	-10	20%
CC(Sc1ncn[nH]1)C(=O)c1c(N)n(C)c(=O)n(C)c1=O (stereo unspecified)	0	nt	3	-5.9%	-1%	nt	14%
O=C(NNC(=O)C(c1ccccc1)c1ccccc1)c1cccs1	6	-1%	15	1.2%	-3%	-0.1	-9%
COC(=O)c1cc(OC)c(OC)cc1NC(=O)c1c(-c2ccccc2)noc1C	1	-21%	8	-9.0%	4%	4.7	5%
CC1=CC(C)(C)NC(=S)N1c1ccc([N+](=O)[O-])cc1	nt	nt	-8	nt	-19%	nt	-1%
COc1ccc(CC(=O)OC(C)C(=O)Nc2ccc(Cl)cn2)cc1 (stereo unspecified)	-7	nt	10	-0.6%	-39%[inhibitor]	nt	13%
COCCNC(=O)CN(C(=O)CCC(=O)Nc1nccs1)c1ccc2c(c1)OCO2	0	8%	-9	nt	-8%[15.4 µM]	3.9	8%
COCC(C)n1c(SCC(=O)NC(=O)NCc2ccccc2)nc2ccccc2c1=O (stereo unspecified)	nt	nt	-19	2.6%	0%[15.4 µM]	nt	4%
CC(NC(=O)C12CC3CC(C1)CC(n1cncn1)(C3)C2)C12CC3CC(CC(C3)C1)C2 (stereo unspecified)	3	1%	11	0.9%	-27%	7.2	-3%[15.4 µM]
O=C(/C=C/c1ccc(OCCCF)cc1)Nc1ccnc(-c2ccncc2)n1	0	6%	22	nt	-18%[15.4 µM]	-3.0	nt
Cc1cccc(NC(=O)CCc2nnc3ccc(NCc4ccco4)nn23)n1	-2	-1%	-2	6.5%	16%	nt	-1%
Cc1ccc(NC2CCCN(C(=O)c3ccccn3)C2)cc1C (stereo unspecified)	9	5%	-5	1.2%	5%	nt	-1%
CCOc1ccc(N=CC2=C(O)CC(c3ccco3)CC2=O)cc1 (stereo unspecified)	10	5%	11	-6.1%	-21%	6.9	1%
CC1(C)Cc2ccccc2C(c2cc3ccccc3oc2=O)=N1	-2	14%	-14	-6.1%	22%	2.6	-7%
Cc1csc2nc(CN3CCN(CC(=O)N(C)C)CC3)cc(=O)n12	30	16%	-4	nt	29%	-7.8	4%
Cc1c(C(c2cc(O)ccc2Cl)c2c(C)n(C)n(-c3ccccc3)c2=O)c(=O)n(-c2ccccc2)n1C	nt	nt	0	nt	7%	nt	2%
CCOC(=O)c1cnc2c(C(=O)OCC)cnn2c1N	11	-4%	2	-1.8%	10%[15.4 µM]	0.9	6%
Cc1cc(Nc2ccccc2)c2c([N+](=O)[O-])c(C)cc(C)c2n1	14	-4%	-5	1.2%	-39%[inhibitor]	-0.3	-2%
CCOC(=O)c1oc2nc3c(cc2c1N)CCCC3	nt	5%	-6	nt	0%[15.4 µM]	1.3	-4%
CCNc1nc(NC(C)C)nc(OCC)n1	-4	2%	3	1.2%	-2%	4.0	3%
COC(=O)C1C(c2ccc(Br)cc2)Nc2nnc(C(F)(F)F)n2C1(C)O (stereo unspecified)	3	4%	-7	nt	2%[15.4 µM]	-1.2	nt
OCCCn1c(-c2ccccc2)n[nH]c1=S	0	-5%	-1	-6.9%	30%	0.7	1%
CN1C(=O)c2ccccc2C(C(=O)O)C1c1cn(C)c2ccccc12 (stereo unspecified)	20	2%	-2	-4.2%	-18%	3.4	8%
CCN1C(=O)C(=O)N(CC(=O)NC(C)CCc2ccccc2)C1=O (stereo unspecified)	13	nt	3	-0.5%	29%	nt	12%
O=C1c2ccccc2CN1CCNC(=S)NC1CCCCC1	0	16%	-8	-1.0%	3%[15.4 µM]	-1.9	9%

Some of the entries so far, with bars between the fields.
SMILES | TRPV1 potentiator | Sfp PPTase inh | D2 PAM | ClpP mod | gsp ag | Menin MLL FP FL | gsp antagonist
O=C(/C=C/c1ccc(OCCCF)cc1)Nc1ccnc(-c2ccncc2)n1 | 0 | 6% | 22 | nt | -18%[15.4 µM] | -3.0 | nt
Cc1cccc(NC(=O)CCc2nnc3ccc(NCc4ccco4)nn23)n1 | -2 | -1% | -2 | 6.5% | 16% | nt | -1%
Cc1ccc(NC2CCCN(C(=O)c3ccccn3)C2)cc1C (stereo unspecified) | 9 | 5% | -5 | 1.2% | 5% | nt | -1%
CCOc1ccc(N=CC2=C(O)CC(c3ccco3)CC2=O)cc1 (stereo unspecified) | 10 | 5% | 11 | -6.1% | -21% | 6.9 | 1%
CC1(C)Cc2ccccc2C(c2cc3ccccc3oc2=O)=N1 | -2 | 14% | -14 | -6.1% | 22% | 2.6 | -7%
Cc1csc2nc(CN3CCN(CC(=O)N(C)C)CC3)cc(=O)n12 | 30 | 16% | -4 | nt | 29% | -7.8 | 4%
Cc1c(C(c2cc(O)ccc2Cl)c2c(C)n(C)n(-c3ccccc3)c2=O)c(=O)n(-c2ccccc2)n1C | nt | nt | 0 | nt | 7% | nt | 2%
CCOC(=O)c1cnc2c(C(=O)OCC)cnn2c1N | 11 | -4% | 2 | -1.8% | 10%[15.4 µM] | 0.9 | 6%
Cc1cc(Nc2ccccc2)c2c([N+](=O)[O-])c(C)cc(C)c2n1 | 14 | -4% | -5 | 1.2% | -39%[inhibitor] | -0.3 | -2%
CCOC(=O)c1oc2nc3c(cc2c1N)CCCC3 | nt | 5% | -6 | nt | 0%[15.4 µM] | 1.3 | -4%
CCNc1nc(NC(C)C)nc(OCC)n1 | -4 | 2% | 3 | 1.2% | -2% | 4.0 | 3%
COC(=O)C1C(c2ccc(Br)cc2)Nc2nnc(C(F)(F)F)n2C1(C)O (stereo unspecified) | 3 | 4% | -7 | nt | 2%[15.4 µM] | -1.2 | nt
OCCCn1c(-c2ccccc2)n[nH]c1=S | 0 | -5% | -1 | -6.9% | 30% | 0.7 | 1%
CN1C(=O)c2ccccc2C(C(=O)O)C1c1cn(C)c2ccccc12 (stereo unspecified) | 20 | 2% | -2 | -4.2% | -18% | 3.4 | 8%
CCN1C(=O)C(=O)N(CC(=O)NC(C)CCc2ccccc2)C1=O (stereo unspecified) | 13 | nt | 3 | -0.5% | 29% | nt | 12%

The results go on.
SMILES	TRPV1 potentiator	Sfp PPTase inh	D2 PAM	ClpP mod	gsp ag	Menin MLL FP FL	gsp antagonist
Cc1ccc(/C=N/NC(=O)CSc2nc3ccccc3n2C)s1	0	18%	-24	-1.5%	-40%[inhibitor]	3.1	-4%
COCc1ccc(C(=O)N2CCCC(Nc3ccc(C(C)C)cc3)C2)o1 (stereo unspecified)	-17	7%	2	0.2%	-6%	nt	-1%
Cc1ccc(N2C(=O)c3cccc([N+](=O)[O-])c3C2=O)cc1C	4	4%	19	nt	-9%[15.4 µM]	2.1	-26%
CC(C)c1csc(CN2CCN(Cc3ccc(F)c(F)c3)C(CCO)C2)n1 (stereo unspecified)	-2	6%	-15	nt	3%[15.4 µM]	-2.8	11%
O=C1N=c2ccccc2=C1c1sc(=S)n(-c2ccc(O)cc2)c1O	10	1%	14	nt	-2%[15.4 µM]	2.7	3%
COc1ccc(CCNC(=O)c2[nH]c(C)c(C(C)=O)c2C)cc1	-20	19%	-11	35µM*	-34%[inhibitor]	3.6	-3%
COc1ccc(NS(=O)(=O)c2cc(NC(=O)C3CCCCC3)ccc2N2CCOCC2)cc1	22	-1%	8	nt	-3%[15.4 µM]	-2.8	nt
Cc1ccc(CCN2CC(C(=O)NCCN3CCCCCC3)CC2=O)cc1 (stereo unspecified)	15	-3%	19	-0.7%	16%	-1.5	-6%
Cc1c(C(=O)/C=C/N(C)C)nnn1-c1ccc(Cl)cc1Cl	15	12%	-29	nt	0%[15.4 µM]	13	-1%
COc1ccc(C(=O)NC2CCN(CC(=O)Nc3cccc(OC)c3)CC2)cc1	-2	21%	-4	-3.4%	-15%	0.3	1%
CCCn1c2ccccc2c2nnc(SC(CC)C(=O)Nc3sc4c(c3C#N)CCCC4)nc21 (stereo unspecified)	0	-10%	4	-0.9%	-1%	2.8	4%
O=C(COC(=O)C1COc2ccccc2O1)Nc1cccc(Cl)c1 (stereo unspecified)	-4	nt	0	-0.2%	-12%	nt	13%
COC(=O)c1ccc(CN2CCC(CO)(Cc3ccccc3Cl)CC2)cc1	1	14%	-17	nt	3%	0.7	4%
CNS(=O)(=O)c1cnccc1N1CCN(c2cccc(C)c2)CC1	-9	17%	-6	-1.4%	-19%	-1.6	6%
Clc1ccc2c(NCCNC3CCCCC3)ccnc2c1	nt	nt	-14	nt	9%	nt	-4%
CC(C)(CO)CNC(=O)c1ccc2nc(Cc3cccc(Cl)c3)oc2c1	-7	5%	-40	?	0%[15.4 µM]	6.9	0%
CC1CCCCN1C(=O)c1ccc(C(=O)Nc2ccc(F)cc2)cc1 (stereo unspecified)	-9	nt	-6	2.6%	4%	nt	-5%
CCc1ccc(NC(=O)NC2CCCCCCC2)cc1	-4	-1%	4	-0.1%	-32%	nt	-11%

Bioassay records deposited in PubChem by National Center for Advancing Translational Sciences (NCATS).

Compounds were not picked by outcome, and some 5.1% of all compounds hit somewhere here.
